# E coli growth: E. coli growth inhibition, primary screen, OD600 | 330,000 tested, 0.21% active | Escherichia coli growth, 23 h; stronger effect = lower value | AID 1053175, 2014 | OD600 absorbance (concentration not given with the values);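 active = OD600 absorbance below the run mean of sample wells minus 3.6 SD, in any replicate, cut at about 0.56 in these data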;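 also: stock transfer was 300 nL into about 60 µL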
# T cruzi inh: inhibitors of intracellular T. cruzi growth, primary screen, luminescence, NIH3T3 host cells; 300,000 tested, 1.4% active; T. cruzi beta-gal in NIH3T3, 90 h; inhibition, % (no concentration beside the values);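 active = mean inhibition across valid replicates above about 55%, limit read from the data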;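 also: signal also drops with host cell toxicity which is not excluded here; 0% = plate median of DMSO wells and 100% = zero luminescence signal; higher percent means less beta-gal luminescence so fewer parasites; stock transfer was 50 nL into about 50 µL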
# UCH37 DUB inh: inhibitors of human UCH37 deubiquitinase, primary screen, biochemical, Ub-AMC cleavage, fluorescence. Ubiquitin carboxyl-terminal hydrolase isozyme L5 (Homo sapiens), Q9Y5K5. purified proteasome/UCH37. inhibition, % (no concentration beside the values). 330,000 tested, 0.33% active. AID 588478, 2011;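 active = mean of two replicates above 20%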;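 also: 0% = compound-free wells with enzyme and 100% = wells lacking proteasome; stock transfer was 100 nL into about 20 µL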
# Target sequence (Q9Y5K5 whole entry, looked up): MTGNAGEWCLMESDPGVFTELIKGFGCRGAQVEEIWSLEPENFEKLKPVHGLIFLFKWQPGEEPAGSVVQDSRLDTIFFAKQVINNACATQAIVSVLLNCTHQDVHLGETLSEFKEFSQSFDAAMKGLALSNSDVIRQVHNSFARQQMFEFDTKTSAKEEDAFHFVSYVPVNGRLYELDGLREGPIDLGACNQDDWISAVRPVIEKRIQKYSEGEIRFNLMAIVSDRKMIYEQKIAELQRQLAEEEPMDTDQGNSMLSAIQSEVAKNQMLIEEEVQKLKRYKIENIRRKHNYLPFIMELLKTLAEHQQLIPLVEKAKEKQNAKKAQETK
#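 Signal – fluorescence, ex 355 nm, em 460 nm · System – Proteasome-bound UCH37 · Input – 0.15 nM proteasome as dispensed · Timing – 30 min preincubation with enzyme, 25 min cleavage at room temperature · Read-out basis – percent inhibition of cleavage signal versus uninhibited and no-proteasome wells · Medium – Tris-HCl pH 7.4 with ATP-MgCl2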
# FGF22 binding: binders of human FGF22 protein, primary screen, FGF22 synaptogenesis inhibitor project, biophysical, thermal shift, single point | 340,000 tested, 1.5% active | AID 651658, 2012 | recombinant FGF22 thermal shift, SYPRO orange fluorescence; percent of sucrose octasulfate shift, DMSO zero | Fibroblast growth factor 22 (Homo sapiens), Q9HCT0 | calls only at 9.99 µM;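 active = melting point raised past a set limit in the mean and every replicate; three in four hits are not shown here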
# Target sequence (Q9HCT0 whole entry, looked up): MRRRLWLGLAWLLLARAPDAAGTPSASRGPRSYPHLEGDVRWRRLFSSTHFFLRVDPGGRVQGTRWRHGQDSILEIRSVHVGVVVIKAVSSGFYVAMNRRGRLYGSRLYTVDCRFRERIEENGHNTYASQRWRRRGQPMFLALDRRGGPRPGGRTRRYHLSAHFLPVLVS
# Beta apoptosis: inhibitors of cytokine-induced beta cell apoptosis, primary screen, luminescence. protection from apoptosis, % (concentration not given with the values). INS-1E cytokine-induced death, ATP luminescence, 48 h; percent of positive-control rescue, neutral wells zero. 300,000 tested, 0.8% active;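 active = all replicates at 75% or more, or half of them and the mean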;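 also: 0% = cytokine-treated negative control wells and 100% = positive control rescue; higher means more ATP so stronger rescue from cytokine killing; wells of about 40 µL received 100 nL stock; the first replicate is given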
# A1 inh: caspase 3/7 activation in MEF A1-2A-BIM cells, primary screen, A1 inhibitor project, cell-based, luminescence, HTS; Caspase-Glo 3/7 luminescence, 3 h; percent of clofoctol response, vehicle zero; caspase activation, % (concentration not given with the values); 330,000 tested, 0.066% active;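 active = over half of replicate activation scores above 10%, or exactly half above 10 with the replicate mean above 10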;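 also: wells of about 30 µL received 50 nL stock; many hits fall short of the cut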
# rRNA inh HTS: reduced GFP signal of wild-type E. coli, primary screen, bacterial rRNA inhibitor project, GFP/RFP fluorescence, OD600, single point; E. coli WT GFP vs humanized-ribosome RFP mutants, 24 h; stronger effect = lower value; DMSO median 0, no signal -100; 350,000 tested, 1.6% active; GFP signal change (wild-type ribosome), % (no concentration beside the values);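 active = significant combined selectivity score with lowered wild-type GFP, culture density cut under 30%, mutant RFP and density less affected; inactive = any of these conditions unmet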; also: one replicate is shown; some compounds called inactive have numbers as strong as hits
# AF4-AF9 inh: inhibitors of AF4 peptide binding to AF9, primary screen, biochemical, AlphaScreen, biotin-AF4 peptide, FLAG-AF9, single point; Protein AF-9 (Homo sapiens), P42568; inhibition, % at 10 µM; AID 651704, 2012; 350,000 tested, 0.47% active;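 active = every replicate reaching a set inhibition limit, whatever the replicate mean, cut at about 25% in these data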;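 also: 0% = plate neutral control median and 100% = total signal loss; the record names both 10 and 1 µM as test concentration; the first replicate is given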
# Target sequence (P42568 whole entry, looked up): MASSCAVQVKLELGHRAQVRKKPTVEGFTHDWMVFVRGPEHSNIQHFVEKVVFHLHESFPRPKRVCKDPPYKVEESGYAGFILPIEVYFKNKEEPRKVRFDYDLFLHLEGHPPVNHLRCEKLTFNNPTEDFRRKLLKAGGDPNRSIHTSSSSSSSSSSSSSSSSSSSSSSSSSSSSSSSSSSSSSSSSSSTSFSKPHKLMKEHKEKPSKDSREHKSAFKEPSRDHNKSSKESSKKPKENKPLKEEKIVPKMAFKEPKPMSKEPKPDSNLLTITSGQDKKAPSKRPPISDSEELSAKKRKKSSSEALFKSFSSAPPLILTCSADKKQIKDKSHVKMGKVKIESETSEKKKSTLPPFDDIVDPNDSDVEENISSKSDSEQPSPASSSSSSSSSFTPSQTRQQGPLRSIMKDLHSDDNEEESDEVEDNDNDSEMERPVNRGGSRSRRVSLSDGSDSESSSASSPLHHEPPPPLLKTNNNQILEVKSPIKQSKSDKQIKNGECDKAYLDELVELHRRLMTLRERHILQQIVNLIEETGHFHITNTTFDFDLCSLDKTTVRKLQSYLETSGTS
# rRNA inh HTS OD600: recorded beside rRNA inh HTS, whose call it bears; OD600 change, %; measured here: OD600 growth;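 optical density of the mix in the first replicate; 0 = DMSO median and -100 = no signal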
# rRNA inh HTS RFP: further read-out of rRNA inh HTS, marked with its call; RFP signal change, %; measured here: RFP humanized mutant strains;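 first replicate; 0 = DMSO median and -100 = no signal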
# * marks the source's active call; other numbers are inactive results; i = inactive; nt = not tested or not shown.
SMILES,E coli growth,T cruzi inh,UCH37 DUB inh,FGF22 binding,Beta apoptosis,A1 inh,rRNA inh HTS,rRNA inh HTS OD600,rRNA inh HTS RFP,AF4-AF9 inh
Cn1c(=O)c2c(nc(CN3CCC(C(N)=O)CC3)n2CCCc2ccccc2)n(C)c1=O,0.706,8.4,4.6,nt,2.4,0.0,nt,nt,nt,nt
Cc1ccccc1C(=O)N1CCN(c2ccc(NC(=O)c3cccs3)cc2)CC1,0.694,3.7,1.9,i,-11.7,1.1,16.1,14.5,1.9,0.8
O=C(c1cnc(-c2ccc(Cl)cc2)s1)c1ccc(Cl)cc1Cl,0.689,-8.4,2.0,nt,2.6,-0.8,-5.6,3.3,-4.3,nt
C/C(=N\NC(=O)c1c(C)nc2ccccn12)c1ccco1,nt,-31.5,nt,i,4.7,-5.1,13.8,7.3,1.8,-0.2
CCn1cc(/C=C(\NC(=O)c2ccc(OC)c(OC)c2)C(=O)NCCCN2CCOCC2)c2ccccc21,0.756,-9.0,14.8,i,nt,nt,9.2,9.3,0.2,4.5
C[C@]12C=CC(=O)C=C1CCC1C3CC[C@](O)(C(=O)CO)[C@@]3(C)CC3OC312 (some centres undefined),0.699,8.9,-1.2,nt,-3.0,0.5,nt,nt,nt,2.2
C=CCc1c(C)[nH]c(=O)[nH]c1=O,0.667,-29.4,0.8,i,-0.8,0.2,15.9,-2.2,0.9,-9.3
O=C(c1cccc(NS(=O)(=O)c2cccc(C(F)(F)F)c2)c1)N1CCOCC1,0.704,-12.0,1.4,i,-2.8,0.1,3.2,-1.3,-1.3,-1.1
Cc1ccc(S(=O)(=O)N(C)CC(=O)Nc2ccccc2)cc1,0.647,-17.0,-1.1,nt,-2.1,0.7,nt,nt,nt,nt
CC/C(=N\NC(=O)c1cccnc1)c1ccc2c(c1)OCCO2,nt,2.5,nt,i,-0.2,-0.2,19.2,10.9,3.4,-1.1
CCCc1cc(C(=O)Nc2cc(Cl)ccc2O)no1,0.636,-9.2,0.4,i,5.7,-1.3,7.7,4.9,2.3,-2.3
O=C(Cn1c(=O)oc2ccccc21)Nc1cccc(Cl)c1,nt,-6.3,nt,i,-2.2,0.0,-3.5,7.9,2.4,3.1
CSc1nsc(SCC(=O)Nc2ccc(OC(C)=O)cc2)n1,0.651,-0.7,4.5,i,-3.4,-0.4,-10.0,-0.8,0.7,1.9
CC(C)CCNC(=O)C(c1ccco1)N(CC1CCCO1)C(=O)Cn1nnc2ccccc21 (centres undefined),0.758,-6.0,-1.1,nt,-1.6,-0.4,3.6,14.9,-1.4,nt
CCSc1nnc(NC(=O)CSc2nc3c(cc2C#N)CCCC3)s1,0.712,20.8,-48.8,nt,-1.5,-1.7,nt,nt,nt,nt
Cc1cc(N2CCN(c3ccccc3)CC2)nc(-c2ccccc2)n1,0.697,4.0,2.4,nt,-4.9,3.3,nt,nt,nt,nt
COc1cccc(NC(=O)N2CCCC2C(=O)NCC(C)C)c1 (centres undefined),0.663,-6.4,5.0,nt,-1.9,0.2,nt,nt,nt,nt
c1cnc(Sc2ccc3nnnn3n2)nc1,0.701,2.4,5.1,nt,-7.4,0.0,1.2,3.9,0.8,-2.3
Brc1ccc(NCc2nnc3n2CCCCC3)cc1,0.695,7.3,5.1,i,-6.5,-0.8,0.7,2.0,-3.2,3.8
C[C@H](OC(=O)NCc1ccc(C(F)(F)F)cc1)[C@@H]1O[C@@]2(C)CCC[C@@H]1O2,nt,nt,2.4,i,-3.5,0.4,7.5,9.4,0.7,-0.8
O=C(Cn1cc(C(F)(F)F)cc(Cl)c1=O)NCc1ccc(Cl)cc1Cl,0.695,-5.3,2.1,i,-5.4,-0.4,3.7,8.8,-1.4,-2.3
Cn1c(N)c(C(=O)COC(=O)COc2ccc(Br)cc2)c(=O)n(C)c1=O,0.671,nt,0.6,i,-3.5,0.3,8.6,10.7,0.2,1.3
Cc1ccc(C(=O)/C=C/C(=O)c2ccc(C)cc2)cc1,0.65,20.3,1.1,nt,0.1,9.9*,-23.9*,-14.8*,-2.9*,-2.6
Cc1c(C)c2ccc(OCC(=O)NC(Cc3c[nH]c4ccc(O)cc34)C(=O)O)c(C)c2oc1=O (centres undefined),0.7,-10.4,4.3,i,-1.2,0.1,12.8,5.9,-5.9,-3.9
CC1Cc2ccccc2N1C(=O)CN1CCC(C(N)=O)CC1 (centres undefined),0.732,-7.4,2.0,i,4.0,-1.1,5.5,3.2,0.4,-0.4
O=C1NN(c2ccccc2)C(=O)/C1=C\c1ccccc1,0.686,2.1,1.9,i,-5.4,-0.7,2.3,4.4,1.7,2.0
CSc1ncc2ncn(C3OC(CO)C(O)C3O)c2n1 (centres undefined),0.679,-2.7,1.9,i,-3.3,0.9,4.8,7.3,-1.4,-2.1
COc1ccc(OC)c(NC(=O)CSc2nnc(C3CCCCC3)n2-c2ccccc2)c1,0.696,11.4,0.9,nt,1.7,-0.4,nt,nt,nt,nt
COc1ccc(NS(=O)(=O)c2cccc(C(=O)N/N=C/c3cn(-c4ccccc4)nc3-c3ccc(OC)cc3)c2)cc1,nt,2.6,nt,i,11.1,-0.4,7.1,-0.4,1.9,2.1
COc1cc(NC(=O)c2noc3c2CCCC3)c(OC)cc1Cl,0.748,-3.6,-29.6,i,8.3,-0.7,3.7,6.5,1.0,5.8
O=c1[nH][nH]c(-c2ccccc2O)c1C(C[N+](=O)[O-])c1ccc(Cl)cc1Cl (centres undefined),0.596,-10.9,1.0,i,-4.5,-0.6,6.4,11.3,0.3,-1.9
CN(NC(=O)Nc1ccc(Cl)cc1)c1ncc(C(F)(F)F)cc1Cl,0.663,17.4,4.1,nt,3.7,-0.1,nt,nt,nt,nt
COCCCNC(=O)C1CCC(CNS(=O)(=O)c2ccc(Cl)cc2)CC1 (centres undefined),0.692,0.2,4.0,i,-6.7,0.5,-1.6,-0.1,-1.0,-0.1
Cc1[nH]nc2c1C(c1cccc(OC(=O)N3CCOCC3)c1)C(C#N)=C(N)O2 (centres undefined),0.782,-7.5,0.5,nt,nt,0.4,nt,nt,nt,nt
CCN(CC)S(=O)(=O)c1ccc2c(c1)c(=O)c(C(=O)NCCc1ccc(OC)c(OC)c1)cn2C,0.695,10.5,1.9,i,nt,nt,-5.3,5.7,-3.5,-0.9
CC(C)(C)C1=CC(=O)C(=O)C(C(C)(C)C)=C1,0.676,73.8*,1.4,nt,-0.1,30.9*,nt,nt,nt,nt
CC(c1ccccc1)N1C(=O)c2ccccc2C1(O)Cc1ccccc1 (centres undefined),0.736,26.9,-1.5,i,-0.2,1.4,-50.1,-74.0,-10.8,2.4
CC(O)(Cc1cccnc1)c1cccs1 (centres undefined),0.702,nt,-4.7,i,nt,nt,2.8,7.9,-2.1,-0.3
O=C(NCCC1=CCCCC1)C1CCN(S(=O)(=O)c2cccc(C(F)(F)F)c2)CC1,0.674,nt,7.8,i,7.9,1.5,nt,nt,nt,-2.9
O=C(Nc1cccc(Cl)c1)c1ccc(=O)[nH]n1,0.679,-1.9,4.0,i,nt,-2.6,15.2,14.9,0.9,-28.6

# 2 records picked at random from those above:
SMILES,E coli growth,T cruzi inh,UCH37 DUB inh,FGF22 binding,Beta apoptosis,A1 inh,rRNA inh HTS,rRNA inh HTS OD600,rRNA inh HTS RFP,AF4-AF9 inh
CC(O)(Cc1cccnc1)c1cccs1 (centres undefined),0.702,nt,-4.7,i,nt,nt,2.8,7.9,-2.1,-0.3
CC(c1ccccc1)N1C(=O)c2ccccc2C1(O)Cc1ccccc1 (centres undefined),0.736,26.9,-1.5,i,-0.2,1.4,-50.1,-74.0,-10.8,2.4

# New compounds follow.
SMILES,E coli growth,T cruzi inh,UCH37 DUB inh,FGF22 binding,Beta apoptosis,A1 inh,rRNA inh HTS,rRNA inh HTS OD600,rRNA inh HTS RFP,AF4-AF9 inh
Cc1ccccc1NC(=O)CN1C(=O)c2ccccc2C1=O,0.69,0.8,0.9,i,-6.0,0.6,18.9,16.7,2.8,-9.4
N#C/C(=N\Nc1ccc(Cl)cc1)C(N)=S,nt,-1.0,nt,i,32.6,-1.8,-51.8,-77.3,-17.1,4.6
Cc1ccc(/C=N/NC(=O)CN2CCN(Cc3ccccc3)CC2)s1,nt,-3.1,nt,i,-12.3,0.1,5.4,7.9,2.0,1.8
COc1cccc2cc(-c3cc(=O)oc4cc(C)c(OCC(C)=O)cc34)oc12,0.679,10.3,-44.0,i,10.0,0.7,1.6,5.3,-3.3,-3.1
CCOC(=O)N1CCN(c2nc(-c3cccs3)nc3ccccc23)CC1,0.637,3.3,-1.2,i,-8.1,0.7,-3.7,-8.3,4.4,0.9
Cc1nnc(C)n1/N=C/c1ccccc1,nt,-16.7,nt,i,-2.9,-0.1,14.4,14.7,1.6,3.8
CC(=O)c1cccc(NC(=O)C=C(C)C)c1,0.659,-21.4,0.9,nt,-36.2,0.3,12.4,3.5,-0.2,nt
O=C(CSc1nc2ccccc2c(=O)n1-c1ccccc1Cl)NCC1CCCO1 (centres undefined),0.634,nt,2.1,i,0.2,1.2,1.9,-1.2,-0.5,-5.8
Cc1cc2oc(C(=O)Nc3ccc(S(=O)(=O)Nc4ncccn4)cc3)cc(=O)c2cc1Cl,0.716,-14.5,-12.1,i,-2.1,-0.8,19.9,18.2,1.5,-0.4
O=C(c1ccccc1)c1sc(N2CCCCCC2)nc1-c1ccccc1,0.781,29.8,1.6,nt,1.7,0.1,nt,nt,nt,nt
CC(NC(=O)NNC(=O)c1ccncc1)(C(F)(F)F)C(F)(F)F,0.715,-18.5,-1.9,i,-5.1,0.6,8.6,-10.2,-8.3,1.0
Cc1ccc(CNC(=O)C(=O)NCC2OCCN2C(=O)c2ccc(Cl)cc2)cc1 (centres undefined),0.798,2.1,4.9,i,-1.4,nt,-3.8,9.7,0.2,-6.2
CCOC(=O)Cc1csc(N/N=C/c2ccc(C(F)(F)F)cc2)n1,nt,8.8,nt,i,-5.5,0.4,-10.4,0.4,-10.0,-3.4
CCOC(=O)C1CCCN(C(=O)C(C)(C)Oc2ccc(Cl)cc2)C1 (centres undefined),0.682,-2.7,0.3,i,-3.4,0.1,-30.5*,-20.5*,-6.6*,-1.0
CC1(C)CC(=O)C(C=Nc2cccnc2)=C(O)C1,0.71,-0.9,5.6,nt,-26.0,1.2,nt,nt,nt,nt
CC(C)c1nnc(NC(=O)c2ccc(S(=O)(=O)N3CCOCC3)cc2)s1,0.75,-12.8,-0.1,i,-6.1,0.7,14.0,18.1,1.3,9.1
CC(=O)CSc1ncnc2sc3c(c12)CCC(C)C3 (centres undefined),0.679,35.8,4.0,nt,4.6,0.7,-41.8,-53.7,9.4,-2.2
CCCOC(=O)NC(CC)COC(=O)Nc1cccc(C)c1C (centres undefined),0.763,2.5,-1.4,nt,7.7,-0.4,nt,nt,nt,nt

# This is a subset; the hit share may differ from the screen's.
